Mtb growth: M. tuberculosis H37Rv growth inhibitors, H37Rv strain (AID 1626); M. tuberculosis H37Rv growth inhibition; higher % means a stronger effect; one-dose inhibition, % at 10 µM; IC50 in µM for titrated hits; 0.95% of 220,000 active;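 active = confirmed in a dose series; inconclusive = inhibition above 80% but not taken into the dose series; inactive = below 80% or under 30% at every dose of the series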;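 note: bacteria incubated seven days before Alamar blue readout; 0% = bacteria only wells and 100% = bacteria with antibiotic wells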
YopH PTP inh: YopH tyrosine phosphatase inhibitors, primary screen, biochemical, fluorescence Ex485/Em525; AID 898, 2007; inhibition, %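 (about 10 µM by stock and volumes)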; 0.16% of 140,000 active;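 active = inhibition of 50% or more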;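 note: controls were vehicle for no effect and minimum signal wells for full effect; inactives centre near -20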
Mtb bLac sens: beta-lactam sensitization of Mtb H37Rv, H37Rv | inhibition, % at 25 µM | M. tuberculosis H37Rv growth with meropenem, percent inhibition; hits of this screen are not shown here | 0.27% of 330,000 active | AID 434955, 2010;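 active = about 74% or more and at least 40 points above the plate without the antibiotic, then above 30% in a dose series; inconclusive = first-round hits that could not be retested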;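 note: growth measured after seven days incubation then overnight dye step; 0% = bacteria only wells and 100% = bacteria with antibiotic; twin plates without the antibiotic show which effects depend on it; some results filed as inactive read as strong as hits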
Arbovirus anti: antivirals against arbovirus infection, primary screen, cell-based, full library, 10K replicate subset | inhibition, % at 10 µM | arbovirus infection cell-based antiviral screen | 0.37% of 200,000 active;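 active = inhibition from about 30%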;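 note: bluetongue infection of BSR cells; cell survival read as ATP light after 72 h; 0% = infected wells without compound and 100% = uninfected wells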
RecA splice inh: Mtb RecA intein splicing inhibitors, primary screen, biochemical, fluorescence, HTS; Protein RecA (Mycobacterium tuberculosis (strain ATCC 25618 / H37Rv)), P9WHJ3; cell-free RecA intein splicing; inhibition, %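 (about 9 µM by stock and volumes)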; 0.75% of 290,000 active; in the data active = inhibition above about 30%; inconclusive = no clear call, values can overlap the other calls;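 note: 0% = vehicle wells and 100% = reference inhibitor control wells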
Target sequence (P9WHJ3 whole entry, looked up, canonical isoform): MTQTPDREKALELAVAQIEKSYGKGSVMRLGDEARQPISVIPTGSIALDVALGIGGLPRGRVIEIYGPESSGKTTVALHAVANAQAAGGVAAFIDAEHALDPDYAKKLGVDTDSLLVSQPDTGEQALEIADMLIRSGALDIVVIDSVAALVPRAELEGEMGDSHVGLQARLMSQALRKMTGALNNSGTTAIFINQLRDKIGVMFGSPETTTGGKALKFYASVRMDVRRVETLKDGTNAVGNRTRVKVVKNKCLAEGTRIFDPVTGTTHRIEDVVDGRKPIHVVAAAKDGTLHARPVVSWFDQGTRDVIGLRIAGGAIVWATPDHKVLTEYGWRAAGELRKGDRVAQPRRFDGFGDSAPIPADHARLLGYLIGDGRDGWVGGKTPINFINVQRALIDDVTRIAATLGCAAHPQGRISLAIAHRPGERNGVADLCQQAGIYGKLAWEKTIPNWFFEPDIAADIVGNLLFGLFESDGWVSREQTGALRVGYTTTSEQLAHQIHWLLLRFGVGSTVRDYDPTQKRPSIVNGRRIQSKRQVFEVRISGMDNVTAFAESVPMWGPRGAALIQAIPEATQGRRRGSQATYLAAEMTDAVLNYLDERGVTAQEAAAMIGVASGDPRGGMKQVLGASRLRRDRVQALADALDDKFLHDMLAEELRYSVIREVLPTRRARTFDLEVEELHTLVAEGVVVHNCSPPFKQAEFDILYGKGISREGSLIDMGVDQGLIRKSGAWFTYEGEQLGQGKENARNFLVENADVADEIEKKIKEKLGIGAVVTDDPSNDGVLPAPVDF
Numbers without * were called inactive; ? = inconclusive; / = not tested or not shown. An excerpt; the hit share may differ from the screen's.

Each structure is followed by: Mtb growth	YopH PTP inh	Mtb bLac sens	Arbovirus anti	RecA splice inh
Cc1ccc(C(=O)OCC(=O)NCCC2=CCCCC2)s1
  27%	7	81	-1	2.9
CCCCC(=O)NCc1ccccc1Cl
  13%	/	21	21	1.3
Cc1cccc(-[n+]2c(-c3cccc(Br)c3)[nH]c3nc4ccccc4nc32)c1
  -6%	/	0	/	5.4
CC(C)(C)c1ccc(C(=O)NCCC(=O)NCc2ccco2)cc1
  -6%	-44	3	/	-0.4
NC1=NC(=O)C(Cc2cccc(Cl)c2)S1 (configuration not stated)
  1%	-28	-6	6	-3.3
COc1ccc(CNC(=O)C2(CC3CC(c4ccccc4)=NO3)CCN(C(=O)c3cccc(O)c3)CC2)cc1 (configuration not stated)
  1%	/	6	/	3.3
COc1ncnc(OC)c1S(=O)(=O)Nc1ccc(C(F)(F)F)cc1
  /	/	-8	/	0.7
CCC(C)n1c(S(=O)(=O)O)nc2ccccc21 (configuration not stated)
  4%	-6	-10	8	2.2
Cc1cc(C)c(NC(=O)CCCC(=O)O)c(Cl)c1
  -3%	-21	2	0	1.6
COc1cc(/C=N/Nc2ccccn2)ccc1O
  1%	/	-7	/	-4.1
COc1ccc(N(CC2CO2)S(=O)(=O)c2ccccc2)cc1 (configuration not stated)
  -2%	/	0	13	6.1
O=C(Nc1ncccc1O)c1ccc2ccccc2c1
  /	/	87	/	1.1
CN(C)CCNC(=O)c1nn(C)c2c1CCc1ccccc1-2
  /	/	7	/	-0.5
Cc1[nH]c2ccccc2c1SCC(=O)Nc1nccs1
  3%	/	3	14	1.4
CCOc1ccc(Nc2nc(N)c([N+](=O)[O-])c(NCc3ccccc3)n2)cc1
  -1%	/	7	/	/
CC(C)Oc1ccc(C(=O)/C(=C\c2cccs2)c2nc3ccccc3o2)cc1
  6%	-24	-2	1	/
CCOC(=O)c1ccc(N(CC(=O)NC2CCCCC2)C(=O)CNC(=O)c2ccco2)cc1
  /	/	4	/	-0.7
Cn1nc(-c2ccccc2)cc1NS(=O)(=O)c1ccc(C#N)cc1
  -7%	/	-13	/	0.2
COc1cccc(CN(C)C(=O)C23CC4CC(CC(NC(C)=O)(C4)C2)C3)c1OC
  /	/	0	/	-1.7
O=C1c2ccccc2-c2c1cccc2C(=O)N(CCO)CCO
  -10%	-28	3	0	-4.1
Cc1cccc(C(=O)NNC(=O)c2ccco2)c1O
  /	/	-4	/	-3.7
Cc1cccc(NC(=O)C2C(c3ccccc3)C2(Cl)Cl)c1C (configuration not stated)
  0%	-27	100	11	0.4
CNC(=S)N1CCN(C(=O)C2CCCO2)CC1 (configuration not stated)
  4%	-28	3	7	-3.0
N#Cc1nc(N)nc(N(c2ccccc2)c2ccccc2)n1
  12%	-42	-7	-4	37*
CCC1=C2CC[C@H]3C(=O)N(C)C(=O)[C@H]3[C@H]2[C@@]2(Cc3ccccc3)C(=NCCOC)OC(=O)N2C1=O
  3%	/	-13	/	-1.8
COc1ccccc1C(=O)C1CCCN(C(=O)c2ccccn2)C1 (configuration not stated)
  -1%	/	0	3	-0.4
CC(CN1CCOCC1)OC(=O)c1ccc(Br)cc1 (configuration not stated)
  ?	-46	100	1	-0.3
O=C(OCCN1CCN(C2=NS(=O)(=O)c3ccccc32)CC1)c1cccc(Br)c1
  /	/	-3	/	0.4
COCCN(C(=O)COC(=O)c1ccc(C)o1)c1c(N)n(Cc2ccccc2)c(=O)[nH]c1=O
  /	/	-5	/	0.3
O=[N+]([O-])c1ccc(/C=N/N2CCCCC2)cc1
  /	/	6	/	2.7
CCOC(=O)c1c(-c2ccc(C)cc2)csc1NC(=O)C1CCCO1 (configuration not stated)
  10%	-22	7	-9	11
Cc1cc(=O)oc2cc(OC(=O)CCN3C(=O)c4ccccc4C3=O)ccc12
  82%	-26	48	5	-7.3
CCn1c(CCC(=O)O)nc2cc(S(=O)(=O)N(C)C)ccc21
  -7%	/	-2	18	/
CCOc1ccc(C(=O)NCC(=O)OCC(=O)Nc2ccc(C)c(S(=O)(=O)N(C)C)c2)cc1
  2%	/	-6	5	1.0
CC(=O)Nc1cccc(NS(=O)(=O)c2cccc3nsnc23)c1
  4%	-33	-4	1	/
CSc1ccccc1OCc1cc(C(=O)N(C)CC2COCCO2)no1 (configuration not stated)
  /	/	-4	/	0.7
Cc1ccc(-c2nnc(-c3ccc4c(c3)OCO4)o2)cc1
  8%	/	6	-6	-2.1
CSc1ccc(CN2C(=O)NC3(CCCCCC3)C2=O)cc1
  1%	/	19	8	-5.3
Cn1c(SCC(=O)NCCc2ccccc2)ncc(C(=O)Nc2ccccc2)c1=O
  /	/	2	/	4.2
Cc1ccc(S(=O)(=O)N2CCN(C(=O)c3ccc(N4CCCC4)c([N+](=O)[O-])c3)CC2)cc1
  /	/	5	/	4.4
COc1ccc(NC(=O)Nc2ccccc2SC)c(OC)c1
  0%	/	-10	-3	-2.9
C=CCN(C(=O)CSc1nc2[nH]ncc2c(=O)n1-c1ccccc1OC)c1ccccc1
  /	-5	2	9	/
CC1CCN(C(=O)c2ccc3c(c2)NC(=O)/C(=C/c2ccccc2)S3)CC1
  /	/	95	/	15
NC1=NS(=O)(=O)NC1c1ccc(F)cc1 (configuration not stated)
  5%	/	-4	4	2.9
O=C(COc1ccccc1)Nc1nnc(S(=O)(=O)N2CCCCCC2)s1
  /	/	6	/	1.0
COc1ccccc1C1CCN(c2ccc(CO)cc2[N+](=O)[O-])CC1
  5%	/	0	/	/
CNC(=S)N(C)c1ccccc1
  -1%	-19	1	-12	0.2
O=C(Cc1ccc(Cl)cc1)Nc1ccc(NC(=O)c2ccccc2)cc1
  -2%	-28	-6	-8	0.9
CCOc1ccc(S(=O)(=O)NCCC(=O)OCC(=O)N2CC(=O)Nc3ccccc32)cc1
  4%	/	-2	8	4.7
COc1ccc(NS(=O)(=O)c2cccc(NC(=O)C3=NN(c4ccccc4)C(=O)CC3)c2)cc1
  /	/	5	/	5.5

Following part
Each structure is followed by: Mtb growth	YopH PTP inh	Mtb bLac sens	Arbovirus anti	RecA splice inh
Nc1cccnc1Oc1ccc(F)cc1F
  -4%	/	3	/	-0.2
CC(C)(C)N(Cc1ccccc1)C(=O)c1ccc2c(c1)OCCO2
  7%	-16	44	-1	-0.9
CCOc1ccc(OCC)c(S(=O)(=O)NNC(=O)c2c(C)nc3ccccn23)c1
  5%	-18	8	6	-2.2
COc1ccc(CCNC(=O)Cn2nnc(-c3cccs3)n2)cc1OC
  -4%	0	5	0	2.1
CC1(C)CC(=O)C=C(NCCN2CCN(C(=O)Cc3ccc(Cl)cc3)CC2)C1
  -6%	-8	-1	5	-5.6
CCOc1ccc(S(=O)(=O)N(CC)CC(=O)NCc2ccncc2)cc1
  /	/	6	/	1.0
Cc1ccc2c(CC(=O)N3CCN(S(=O)(=O)c4cccs4)CC3)coc2c1
  1%	-14	2	7	2.3
CCN(CC)c1ccc(/C=C2/C(=O)NC(=O)N(CC3CCCO3)C2=O)cc1 (configuration not stated)
  8%	-2	-5	6	-3.1
CN(Cc1cc2cc(F)ccc2[nH]1)Cc1nc(-c2cnccn2)no1
  8%	/	-5	2	-1.5
COc1cccc(CN2CCN(c3nc4nonc4nc3N3CCCCC3)CC2=O)c1
  5%	/	-6	7	-0.6
CS(=O)(=O)N1CC(C(=O)NC2CCCC2)Oc2ccc(Cl)cc21 (configuration not stated)
  -10%	-43	5	-2	/
CCC(CC)NCc1ccc2c(c1)c1ccccc1n2CC
  5%	/	50	-30	-1.1
O=C(NCCC(=O)N1CCN(c2ccccn2)CC1)c1ccc(Br)cc1
  /	/	-4	/	-0.1
CCCOc1ccc(C2NC(=O)NC(c3ccccc3)=C2C(C)=O)cc1OCC (configuration not stated)
  -1%	-5	-3	0	/
COc1ccc(Nc2ncnc3ccc(C)cc23)cc1
  /	/	3	/	0.3
Cc1nc2ncnn2c(C)c1CCC(=O)NCc1ccccc1
  -4%	-10	-20	4	-2.5
COc1ccc(/C=N/n2c(C)cc(C)c(C(N)=O)c2=O)cc1
  6%	-2	9	5	-3.0
CCC(=O)NCc1cc(-c2nn(C)c(=O)c3ccccc23)ccc1C
  -1%	-28	6	-5	-18
CCOC(=O)[C@@H]1[C@H]2COc3ccccc3[C@@H]2N2C(=O)N(c3ccc(OC)cc3)C(=O)[C@@]12C
  /	/	0	/	0.3
O=C(N/N=C/c1cccc(OC(=O)c2ccco2)c1)c1ccc(F)cc1
  5%	-48	2	1	18

Part of the list above, field by field:
CS(=O)(=O)N1CC(C(=O)NC2CCCC2)Oc2ccc(Cl)cc21 (configuration not stated)
  Mtb growth = -10% | YopH PTP inh = -43 | Mtb bLac sens = 5 | Arbovirus anti = -2 | RecA splice inh = /
CCC(CC)NCc1ccc2c(c1)c1ccccc1n2CC
  Mtb growth = 5% | YopH PTP inh = / | Mtb bLac sens = 50 | Arbovirus anti = -30 | RecA splice inh = -1.1
O=C(NCCC(=O)N1CCN(c2ccccn2)CC1)c1ccc(Br)cc1
  Mtb growth = / | YopH PTP inh = / | Mtb bLac sens = -4 | Arbovirus anti = / | RecA splice inh = -0.1
CCCOc1ccc(C2NC(=O)NC(c3ccccc3)=C2C(C)=O)cc1OCC (configuration not stated)
  Mtb growth = -1% | YopH PTP inh = -5 | Mtb bLac sens = -3 | Arbovirus anti = 0 | RecA splice inh = /

(continued)
Each structure is followed by: Mtb growth	YopH PTP inh	Mtb bLac sens	Arbovirus anti	RecA splice inh
Cc1cccc2sc(N(CCCN(C)C)C(=O)c3ccc(C(=O)c4ccccc4)cc3)nc12
  /	/	80	/	7.2
Cc1ccc[n+](CC(=O)Nc2cccc([N+](=O)[O-])c2)c1
  2%	/	1	-7	-0.5
Cc1cc(OC(=O)N2CCOCC2)cc(C)c1Cl
  -3%	-19	-6	-2	2.1
Cc1nn(-c2ncc(C(F)(F)F)cc2Cl)c(=O)n1-c1cccc(Cl)c1
  /	13	-4	2	2.0
CCN1C(=O)C(CC(=O)Nc2ccccc2)N(Cc2ccccn2)C1=S (configuration not stated)
  -1%	/	0	3	0.4
CC(=O)c1ccc2noc(-c3cccc(F)c3)c2c1
  /	/	-2	/	-4.8
CCOC(=O)C1CCN(C(=O)c2ccc(SC)cc2OC)CC1
  /	1	-12	8	-1.4
Cc1cc(N2CCN(Cc3nc(-c4ccc(F)cc4)oc3C)CC2)cc(C)n1
  10%	/	-2	-2	-1.2
O=C1COc2ccc(S(=O)(=O)N3CCN(c4ccccc4F)CC3)cc2N1
  /	/	0	/	-0.8
CCOC(=O)c1sc(NC(=O)COc2ncnc3ccccc23)c(C(=O)OCC)c1C
  6%	-23	0	-4	/
CC(C)(C)CC(=O)NC(=S)Nc1ccccc1C(F)(F)F
  47%	-31	2	4	-2.1
C=CCNC(=O)c1ccc2nc(Cc3ccc(OC)cc3)oc2c1
  /	/	3	/	-1.7
O=C(COC(=O)c1ccc(Cl)c(Cl)c1)NC1CCCC1
  /	/	-3	/	-1.8
S=C(Nc1ccccc1Cl)N1CCCCCC1
  -1%	/	1	2	2.2
COc1ccc(C2=NN(CN3C(=O)C(=O)c4ccccc43)C(c3cccc([N+](=O)[O-])c3)C2)cc1 (configuration not stated)
  -2%	/	-9	/	8.0
O=C(O)c1ccc(Cl)c(S(=O)(=O)NCc2ccco2)c1
  0%	-29	-14	1	0.4
O=C(NC1CCCCC1)C(c1ccccc1)N(C(=O)c1cccs1)c1ccc2c(c1)OCO2 (configuration not stated)
  -1%	-1	4	-5	1.8
C=C(C)CN(CC)C(=O)CN1C(=O)NC(C)(c2ccc3ccccc3c2)C1=O (configuration not stated)
  /	/	0	/	2.6
Oc1ccc(C2N=C(c3ccccc3)NC(c3ccccc3)=N2)cc1
  /	-40	-4	-13	/
CCN(CC)CCCN1C(=O)C(=O)/C(=C(/O)c2ccc(Cl)cc2)C1c1ccccn1 (configuration not stated)
  3%	/	-8	/	-1.0
CN(C(=O)Cn1c(Cl)nc2c1c(=O)n(C)c(=O)n2C)C1CCS(=O)(=O)C1 (configuration not stated)
  /	/	1	/	-3.8
O=C1NC2(CCC3(CC2)OCCO3)NN1c1ccc(Cl)cc1
  /	/	6	-31	-1.0
O=C(c1ccc(CS(=O)(=O)c2cccc(C(F)(F)F)c2)o1)N1CCN(c2ccccn2)CC1
  -2%	-20	5	-2	-0.7
CCn1c(CNc2ccc(F)cc2)nnc1SCC(=O)Nc1ccccc1OC
  -7%	-35	0	2	4.8
O=C(NCc1ccccc1F)C1CCCN1C(=O)Nc1ccc(F)cc1 (configuration not stated)
  /	/	-7	/	1.5
CCO[C@@H]1OC(C(=O)NCc2ccccc2)=C[C@H](c2cn(C(C)=O)c3ccccc23)[C@H]1CCCO
  -4%	/	32	-5	1.3
COc1cc2ccccc2cc1C(=O)NCc1ccncc1
  /	/	3	/	-1.0

Screens from PubChem.
